Calb FLC: C. albicans growth inhibition with fluconazole, primary screen, CaCi-2 strain, Alamar Blue fluorescence; C. albicans CaCi-2 (fluconazole-resistant clinical isolate) + fluconazole, 48 h; growth inhibition, % (concentration not given with the values); 300,000 compounds, 0.57% hits; AID 1979, 2009;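 active means most replicates above 75%; inconclusive means exactly half above 75%; inactive means most below 75%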;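 further: all wells also contain fluconazole at 8 µg/ml as a sub-toxic cotreatment; 0% = median of DMSO wells and 100% = median of geldanamycin control wells; wells of about 8 µL received 7.5 nL stock; the first replicate is given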
Beta cell apopt: inhibitors of cytokine-induced beta cell apoptosis, primary screen, luminescence; INS-1E cytokine-induced death, ATP luminescence, 48 h; percent of positive-control rescue, neutral wells zero; protection from apoptosis, % (concentration not given with the values); 300,000 compounds, 0.8% hits;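 active means all replicates at 75% or more, or half of them and the mean; inconclusive means half reach 75% but not the mean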;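 further: 0% = cytokine-treated negative control wells and 100% = positive control rescue; higher means more ATP so stronger rescue from cytokine killing; wells of about 40 µL received 100 nL stock; the first replicate is given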
FGF22 binding: binders of human FGF22 protein, primary screen, FGF22 synaptogenesis inhibitor project, biophysical, thermal shift, single point. recombinant FGF22 thermal shift, SYPRO orange fluorescence; percent of sucrose octasulfate shift, DMSO zero. calls only at 9.99 µM. 340,000 compounds, 1.5% hits;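 active means melting point raised past a set limit in the mean and every replicate; inconclusive means no clear call; three in four hits are not shown here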
Target sequence (Q9HCT0 whole entry, looked up): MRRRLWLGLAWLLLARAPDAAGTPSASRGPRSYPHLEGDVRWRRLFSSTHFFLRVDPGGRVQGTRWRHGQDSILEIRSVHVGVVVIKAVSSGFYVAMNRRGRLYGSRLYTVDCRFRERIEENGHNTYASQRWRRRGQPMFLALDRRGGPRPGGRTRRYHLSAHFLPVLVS
ALR H2O2 inh: inhibitors of human ALR sulfhydryl oxidase, primary screen, biochemical, H2O2 detection, HRP-luminol luminescence, single point | FAD-linked sulfhydryl oxidase ALR (Homo sapiens), P55789 | purified ALR, DTT oxidation | inhibition, % (concentration not given with the values) | 290,000 compounds, 3.8% hits | AID 485317, 2010;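 active means mean and each replicate at 75% or more; inconclusive means only one of the two met; inactive means neither met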;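 further: stock transfer was 7.5 nL into about 7.5 µL; 0% = neutral wells and 100% = wells with inactivated enzyme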
Target sequence (P55789 whole entry, looked up): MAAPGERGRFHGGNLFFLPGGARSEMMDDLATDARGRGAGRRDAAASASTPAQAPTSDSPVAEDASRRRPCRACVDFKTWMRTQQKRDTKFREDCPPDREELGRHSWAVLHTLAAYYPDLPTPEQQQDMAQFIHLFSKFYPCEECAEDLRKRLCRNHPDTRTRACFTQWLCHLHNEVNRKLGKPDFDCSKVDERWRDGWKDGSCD
AF4-AF9 inh: inhibitors of AF4 peptide binding to AF9, primary screen, biochemical, AlphaScreen, biotin-AF4 peptide, FLAG-AF9, single point | inhibition, % at 10 µM | AID 651704, 2012 | Protein AF-9 (Homo sapiens), P42568 | 350,000 compounds, 0.47% hits;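 active means every replicate reaching a set inhibition limit, whatever the replicate mean, cut at about 25% in these data; inconclusive means mean inhibition reaches that limit but some replicates miss it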;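 further: 0% = plate neutral control median and 100% = total signal loss; the record names both 10 and 1 µM as test concentration; the first replicate is given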
Target sequence (P42568 whole entry, looked up): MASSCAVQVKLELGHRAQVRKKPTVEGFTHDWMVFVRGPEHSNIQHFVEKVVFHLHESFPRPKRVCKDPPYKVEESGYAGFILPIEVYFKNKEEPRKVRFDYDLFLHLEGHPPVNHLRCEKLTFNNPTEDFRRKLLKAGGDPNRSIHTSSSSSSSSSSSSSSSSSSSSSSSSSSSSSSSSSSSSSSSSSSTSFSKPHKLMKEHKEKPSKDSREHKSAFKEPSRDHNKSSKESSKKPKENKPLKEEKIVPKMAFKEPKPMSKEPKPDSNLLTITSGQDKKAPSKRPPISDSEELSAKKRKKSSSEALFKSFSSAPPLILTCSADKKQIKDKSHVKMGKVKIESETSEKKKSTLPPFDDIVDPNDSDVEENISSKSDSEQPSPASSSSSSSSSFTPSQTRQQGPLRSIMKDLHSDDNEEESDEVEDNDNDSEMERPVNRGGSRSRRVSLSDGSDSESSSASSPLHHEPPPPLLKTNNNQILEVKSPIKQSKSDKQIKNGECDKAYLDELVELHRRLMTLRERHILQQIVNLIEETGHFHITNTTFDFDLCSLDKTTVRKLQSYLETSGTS
RanGTP-Imp inh: inhibitors of RanGTP-importin-beta interaction, primary screen, biochemical, FRET, CFP-Ran, YFP-importin-beta, homogeneous | cell-free CFP-Ran/YFP-importin-beta FRET ratio | inhibition, % (no concentration beside the values) | Ran GTPase (GTP-bound) - importin-beta complex | 300,000 compounds, 1.1% hits | AID 2216, 2009;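 active means most replicates above 15%; inconclusive means exactly half above 15%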;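 further: 0% = DMSO wells and 100% = Ran loaded with GDP instead of GTP; wells of about 40 µL received 100 nL stock; the first replicate is given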
T cruzi inh: inhibitors of intracellular T. cruzi growth, primary screen, luminescence, NIH3T3 host cells; T. cruzi beta-gal in NIH3T3, 90 h; inhibition, % (no concentration beside the values); 300,000 compounds, 1.4% hits; AID 1885, 2009;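 active means mean inhibition across valid replicates above about 55%, limit read from the data; inconclusive means mean below that limit but half or more replicates reach it; inactive means mean below it, under half of replicates reach it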;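 further: signal also drops with host cell toxicity which is not excluded here; 0% = plate median of DMSO wells and 100% = zero luminescence signal; higher percent means less beta-gal luminescence so fewer parasites; stock transfer was 50 nL into about 50 µL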
Ecoli rRNA inh: reduced GFP signal of wild-type E. coli, primary screen, bacterial rRNA inhibitor project, GFP/RFP fluorescence, OD600, single point; E. coli WT GFP vs humanized-ribosome RFP mutants, 24 h; hits give low values; DMSO median 0, no signal -100; GFP signal change (wild-type ribosome), % (test concentration not listed); 350,000 compounds, 1.6% hits; AID 720706, 2013;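 active means significant combined selectivity score with lowered wild-type GFP, culture density cut under 30%, mutant RFP and density less affected; inactive means any of these conditions unmet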; further: one replicate is shown; some compounds called inactive have numbers as strong as hits
Ecoli rRNA inh OD600: recorded beside Ecoli rRNA inh, whose call it bears; OD600 change, %; measured here: OD600 growth;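 optical density of the mix in the first replicate; 0 = DMSO median and -100 = no signal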
Ecoli rRNA inh RFP: also measured in Ecoli rRNA inh; calls as there; RFP signal change, %; measured here: RFP humanized mutant strains;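 first replicate; 0 = DMSO median and -100 = no signal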
* = called active by the depositor; i = inactive; ? = inconclusive; nt = no result given.

SMILES | Calb FLC | Beta cell apopt | FGF22 binding | ALR H2O2 inh | AF4-AF9 inh | RanGTP-Imp inh | T cruzi inh | Ecoli rRNA inh | Ecoli rRNA inh OD600 | Ecoli rRNA inh RFP
NNC(=O)c1cc2c(ccc3ccccc32)o1 | -4 | -1 | i | 39 | 0.2 | 0.7 | -1 | -43 | -62 | 9.1
COc1cc(C2C3=C(CCCC3=O)Nc3[nH]n(-c4ccccc4)c(=O)c32)ccc1OC(C)=O (centres undefined) | -5 | 2 | i | 56 | 1.1 | 3.2 | 15 | 3 | 8 | 0.2
N#C/C(=C\c1cccc(Br)c1)C(=O)N1CCCCC1 | 3 | -3 | i | 11 | 3.6 | 2.4 | -1 | -20 | -16 | 1.7
CCCn1c(SCCN2CCOCC2)nc2c1c(=O)n(C)c(=O)n2C | 4 | -1 | i | 2 | -2.9 | 0.8 | -8 | -5 | -2 | 0.5
C=CCn1cc(C(=O)NCCCOC)c(=O)c2cc(S(=O)(=O)N3CCC(C)CC3)ccc21 | nt | 1 | i | -42 | -0.1 | nt | nt | -9 | -9 | -0.2
CC1CCN(C(=O)COC(=O)CCCN2C(=O)c3cccc4cccc(c34)C2=O)CC1 | 2 | -6 | i | -3 | 0.5 | -2.5 | -3 | -10 | -4 | -2.3
O=C1CC(c2cccc(Cl)c2)Cc2nc(N3CCOCC3)ncc21 (centres undefined) | -14 | -11 | nt | -12 | nt | -1.9 | 0 | nt | nt | nt
Cc1ccc2c(CN3CCN(S(=O)(=O)c4ccccc4C(F)(F)F)CC3)cc(=O)oc2c1C | nt | 16 | i | -1 | -6.3 | nt | nt | nt | nt | nt
CC(C)c1ccc2c(c1)C1Cc3ccccc3C1N2 (centres undefined) | 0 | 9 | nt | 0 | nt | ? | 39 | nt | nt | nt
CC(C)OC(=O)CSc1nc2c(cc1C#N)CCCCC2 | -10 | -5 | i | nt | -5.2 | 2.7 | 7 | 9 | 14 | -0.8
O=C(Oc1cccc2cccnc12)c1ccc2c(c1)OCCO2 | -5 | 5 | nt | -31 | nt | -2.2 | -4 | nt | nt | nt
O=C(N/N=C/c1ccc2cccc(OCc3ccccc3)c2n1)c1ccc(Br)cc1 | -5 | 8 | nt | nt | nt | -2.2 | 0 | nt | nt | nt
O=C(Nc1ccc(O)cc1)c1ccccc1OCc1ccccc1 | -4 | nt | i | ? | -2.0 | ? | 14 | -30 | -24 | -6.6
Cc1ccc2[nH]c3c(Cl)ncnc3c2c1 | -5 | -1 | i | 62 | 6.3 | 0.2 | 0 | -29* | -19* | -2.7*
COc1ccc(N2C(=O)CCC2(C#N)c2ccc(Br)cc2)cc1 (centres undefined) | 2 | -10 | nt | -1 | nt | 0.7 | -6 | nt | nt | nt
O=C(CSc1nnc(-c2ccncc2)n1Cc1ccco1)Nc1cccc(O)c1 | 12 | -4 | i | 3 | -6.0 | -2.3 | -14 | 6 | 6 | 4.2
O=C(Nn1cc(C(=O)Nc2ccccc2F)c2ccccc2c1=O)c1cnccn1 | 3 | 15 | i | 40 | 0.1 | 1.2 | -16 | -34 | -43 | -8.9
COc1ccc(/C=C/C(=O)N(C)C2(C)CCS(=O)(=O)C2)cc1 (centres undefined) | 2 | -7 | i | -2 | 1.3 | 5.3 | 0 | 8 | 4 | 0.4
O=C(Cc1ccccc1)NCCSCc1ccccc1 | 4 | -4 | i | nt | -2.2 | 4.1 | 2 | 3 | -1 | -1.3
CCc1cc(=O)oc2c(C)c(OCC(=O)NCC3CCC(C(=O)O)CC3)ccc12 (centres undefined) | 3 | -4 | i | -3 | -0.6 | 3.9 | -16 | nt | nt | nt
Cn1c(=O)c(=O)n(C)c2cc(S(=O)(=O)NCCOc3ccccc3)ccc21 | -12 | nt | i | 7 | 0.4 | -0.5 | -1 | 9 | 4 | 1.0
OCCOCCN1CCN(C(=S)Nc2ccccc2)CC1 | -8 | 0 | i | -4 | -2.3 | -3.7 | -13 | 15 | 24 | 4.7
O=C(CSc1nc2[nH]c(=O)cc(O)c2s1)Nc1cc(Cl)cc(Cl)c1 | -4 | -1 | i | 99* | -2.9 | -3.3 | -5 | -7 | -14 | 12
COc1ccc(CN2CC(C(=O)NCc3ccc4c(c3)OCO4)CC2=O)cc1 (centres undefined) | -21 | -10 | nt | 20 | nt | 1.0 | -4 | nt | nt | nt
COc1ccc(C(=O)N2CCN(C(=O)c3cc(OC)c(OC)c(OC)c3)CC2)cc1 | 4 | -3 | nt | -8 | nt | -2.8 | -10 | nt | nt | nt
COc1ccc(OCC(=O)N2CCc3ccccc3C2)cc1 | 1 | -2 | i | nt | -2.1 | 5.9 | -2 | 4 | -5 | 0.9
CC(NC(=O)COC(=O)c1ccccc1F)C1CC2CCC1C2 (centres undefined) | nt | -4 | i | nt | 0.5 | nt | nt | -3 | -12 | 1.3
O=C(CN(c1ccc(F)cc1)S(=O)(=O)c1ccc2c(c1)OCCO2)Nc1ccccc1 | -1 | 2 | nt | -18 | nt | 2.9 | 11 | nt | nt | nt
O=C(Nc1ccccc1)c1ccc(CN2CCC(Cc3ccccc3)CC2)cc1 | -19 | 1 | nt | -2 | nt | -2.3 | 24 | nt | nt | nt
CCCCc1nnc2c(N(C)S(=O)(=O)c3ccc(C)cc3)nc3ccccc3n12 | -1 | 12 | i | 5 | -23 | 2.2 | 35 | 9 | 6 | 5.8
Nc1cc(=O)[nH]c(SCC(=O)Nc2cccc([N+](=O)[O-])c2)n1 | 1 | -8 | i | 22 | -1.7 | 2.2 | -2 | 12 | 13 | -0.2
COc1ccc([C@@H]2OC2(C(N)=O)C(N)=O)cc1 | 3 | -9 | i | nt | 0.7 | -4.5 | -11 | 12 | 7 | 2.2
CCOc1ccc(-c2cc(C(=O)N/N=C(\C)c3cccnc3)c3ccccc3n2)c(OCC)c1 | -30 | 0 | i | -17 | -0.2 | -2.0 | 3 | 0 | 3 | -2.8
CCOc1cc2[nH]c(=S)n(CCCOC)c(=O)c2cc1OCC | 6 | -1 | nt | -2 | nt | 0.2 | -1 | nt | nt | nt
FC(F)Oc1ccc(NC(=S)NNc2ccnc3cc(Cl)ccc23)cc1 | 15 | -2 | i | 7 | 8.1 | 1.7 | -7 | -20 | -1 | 11
c1ccc2c(CCN3CCNC[C@H]3Cc3cccc4ccccc34)cccc2c1 | nt | 1 | i | -15 | 16 | nt | nt | -44 | -47 | -3.4
CCCCC1CCC(C(=O)N(CCOC)c2c(N)n(CC(C)C)c(=O)[nH]c2=O)CC1 (centres undefined) | nt | -8 | i | nt | 0.2 | nt | nt | 10 | 8 | -2.4
Cc1ccc(NC(=S)N(CCN(C)C)Cc2cc3cc(C)ccc3[nH]c2=O)cc1 | 11 | -10 | i | 1 | 1.2 | -4.7 | -30 | -6 | -7 | 1.9
O=C1CC(c2ccccc2)CN1C(=O)c1cccc([N+](=O)[O-])c1 (centres undefined) | 6 | 1 | nt | -12 | nt | 1.8 | -9 | nt | nt | nt
Cc1sc2ncn(CC(=O)Nc3ccccc3F)c(=O)c2c1-c1ccccc1 | -1 | 3 | i | -3 | 0.0 | 2.5 | 7 | -28* | 2.4* | 4.6*
COc1ccc(C(CCN2CCN(c3ccccc3)CC2)c2c(OC)cc(OC)c3c(-c4ccccc4)cc(=O)oc23)cc1 (centres undefined) | -8 | -1 | i | nt | 4.9 | 4.3 | 49 | 11 | 16 | -0.5
O=C(c1cc(=O)c2cc(Cl)ccc2o1)N1CCN(Cc2ccccc2)CC1 | 5 | -4 | i | 2 | 0.7 | 7.4 | -3 | -4 | -3 | 0.9
CCOc1cc(NC(=S)NCCCN2CCOCC2)c(OCC)cc1NC(=O)c1cccs1 | 20 | nt | i | -6 | -4.6 | -1.0 | 3 | 20 | 19 | 3.2
Nc1ccc2nc(COc3ccccc3)[nH]c2c1 | 20 | 1 | i | 91* | -1.2 | -1.4 | -1 | -3 | 2 | 3.3
O=C(COC(=O)c1cc2ccccc2cc1O)NC(=O)NCc1ccco1 | -2 | -4 | nt | 1 | -3.5 | 0.7 | -6 | 7 | -1 | 2.8
O=C1CCCN1CC1CCCN(Cc2nc(COc3ccccc3)no2)C1 (centres undefined) | ? | 1 | i | -6 | -16 | -0.3 | -2 | 5 | 1 | -0.5
CCOc1ccc(-n2c(Cc3cc(=O)[nH]c(=O)[nH]3)nnc2SCC(=O)OC)cc1 | 4 | -3 | i | -13 | -2.2 | 12 | 3 | 14 | 19 | 0.0
CC1CCN(C(=O)COC(=O)c2ccc([N+](=O)[O-])o2)CC1 | nt | -16 | i | -13 | -3.4 | nt | nt | 15 | 12 | 1.8
CCNc1nc(NCC)nc(N(C#N)CCOc2ccccc2)n1 | -1 | 9 | i | -10 | -10 | 1.1 | 10 | 3 | 4 | -0.9
CC(C)(C)Nc1ncnc2c1cnn2-c1ccccc1 | -58 | 8 | i | 0 | 3.6 | ? | 4 | -2 | -3 | -1.3
C=CC[C@H](CC(=O)N[C@H](CO)Cc1ccccc1)C(=O)N[C@@H](COC(=O)[C@@H](CC=C)CC(=O)OC(C)(C)C)Cc1c[nH]c2ccccc12 | nt | 0 | i | 3 | 4.6 | nt | nt | 3 | -7 | -9.8
CC1COc2ccccc2N1S(=O)(=O)c1ccccc1 (centres undefined) | 100* | 2 | i | -5 | -0.9 | 0.2 | -2 | -33 | -41 | -8.7
C[C@]12CC[C@@H]3c4ccc(O)cc4CC[C@H]3[C@@H]1CC[C@@H]2OC(=O)CCC(=O)O | nt | -2 | i | 39 | -0.5 | 2.3 | 11 | nt | nt | nt
C=CCn1c(SCC(=O)OC)nc2sc3c(c2c1=O)CCN(C)C3 | 1 | -8 | nt | 99* | nt | 6.4 | -19 | nt | nt | nt
CC1=C(C(=O)N2CCCC(CCC(=O)NCc3ccccc3F)C2)OCCO1 (centres undefined) | -13 | nt | i | -12 | -2.0 | -2.4 | 2 | 12 | 13 | 2.1

One compound at a time, from the list above.
CC(C)OC(=O)CSc1nc2c(cc1C#N)CCCCC2 is entered as Calb FLC = -10; Beta cell apopt = -5; FGF22 binding = i; ALR H2O2 inh = nt; AF4-AF9 inh = -5.2; RanGTP-Imp inh = 2.7; T cruzi inh = 7; Ecoli rRNA inh = 9; Ecoli rRNA inh OD600 = 14; Ecoli rRNA inh RFP = -0.8
Cc1ccc(NC(=S)N(CCN(C)C)Cc2cc3cc(C)ccc3[nH]c2=O)cc1 is entered as Calb FLC = 11; Beta cell apopt = -10; FGF22 binding = i; ALR H2O2 inh = 1; AF4-AF9 inh = 1.2; RanGTP-Imp inh = -4.7; T cruzi inh = -30; Ecoli rRNA inh = -6; Ecoli rRNA inh OD600 = -7; Ecoli rRNA inh RFP = 1.9

Screening data: PubChem, Broad Institute

A portion of the library (hit frequency here may not be typical).
